AID923: qHTS Assay for Allosteric/Competitive Inhibitors of Caspase-1: Spectroscopic Profiling in AFC Spectral Region. compound fluorescence, AFC spectral region (405/520 nm); almost no hit is shown here. Potency, µM (doses to about 57.5 µM), for the others: at the highest dose fluorescence increase, most hits filed as activators. 1.1% of 75,000 active; active = well fitted activation curve with a large enough effect; inconclusive = small, poorly fitted or top-dose-only effect;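 also: potency is read from the fitted curve at half-maximal effect; 0% is about no effect; scaled to a free AFC standard on each plate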
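Titrations up to 57 uM read every 20 sec for 3 min (405/520 nm) with 50 nM caspase 1 and 5 uM Ac-WEHD-AFC, pH 7.5 HEPES buffer. Fluorescence-vs-time intercept gave baseline, scaled against on-plate AFC standard.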
A647 fluor: A647 region autofluorescence; Compound fluorescence, A647 channel (570/671 nm), Tris buffer; max dye-equivalent concentration, M; 59,000 tested, under 10 active; AID 592; active means above 1 µM dye equivalent; inconclusive means 0.1 to 1 µM; inactive means 0.1 µM or less;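 also: values scaled relative to a standard on each plate; highest value over a series up to 38 µM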
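Buffer was dispensed, compounds and Alexa 647 standards were pin-transferred, and plates sat 15 min at room temperature. Intensity at 570/671 nm was then converted to dye-equivalent concentration using the plate's A647 standard curve.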
Resorufin autofl: compounds fluorescent in resorufin spectral region | Compound fluorescence, resorufin region 547/598 nm, buffer; stronger effect = higher value | AID 588 | max dye-equivalent concentration, M | 0.04% of 59,000 active; active = above 10 nM dye equivalent; inconclusive = 1 to 10 nM; inactive = 1 nM or less; a few of its hits are not listed in these tables; also: highest value over a series up to 38 µM
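Read-out: intrinsic compound fluorescence at ex 547/em 598 nm after 15 min at RT in pH 8.0 Tris (100 mM). Values expressed as resorufin-equivalent concentration from per-plate standard series.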
A488 fluor: compound fluoresces in the A488 spectral region; 0.1% of 59,000 active; compound autofluorescence, A488 spectral region, dye equivalency; stronger effect = higher value; AID 591; max dye equivalency, M; active = above 10 nM dye equivalent; inconclusive = 1 to 10 nM; inactive = 1 nM or less; about half of its hits are not listed in these tables;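 also: highest value over a series up to 38 µM; compound alone in buffer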
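Intrinsic compound fluorescence is measured in 100 mM Tris buffer at pH 8.0 following 15 min incubation at room temperature. Intensities at 480 nm excitation/540 nm emission are calibrated to an on-plate A488 concentration series, giving dye-equivalent concentrations.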
TSHR agonist: TSH receptor (human) agonism. P16473. HEK293-CNG-TSHR cells (CNG channel as cAMP sensor), membrane potential dye, cAMP. Potency, µM (doses to about 57.1 µM), for the others: top-dose activation, hits mostly activators. 0.48% of 73,000 active; active = well fitted activation curve of enough size with the parental cells flat; inconclusive = any curve in the parental cells; inactive = parental cells flat and receptor cells flat or falling; also: potency is read from the fitted curve at half-maximal effect; % of control where 0% means no effect; weak receptor curves with flat parental cells got no call and are not listed
Target sequence (P16473 whole entry, looked up): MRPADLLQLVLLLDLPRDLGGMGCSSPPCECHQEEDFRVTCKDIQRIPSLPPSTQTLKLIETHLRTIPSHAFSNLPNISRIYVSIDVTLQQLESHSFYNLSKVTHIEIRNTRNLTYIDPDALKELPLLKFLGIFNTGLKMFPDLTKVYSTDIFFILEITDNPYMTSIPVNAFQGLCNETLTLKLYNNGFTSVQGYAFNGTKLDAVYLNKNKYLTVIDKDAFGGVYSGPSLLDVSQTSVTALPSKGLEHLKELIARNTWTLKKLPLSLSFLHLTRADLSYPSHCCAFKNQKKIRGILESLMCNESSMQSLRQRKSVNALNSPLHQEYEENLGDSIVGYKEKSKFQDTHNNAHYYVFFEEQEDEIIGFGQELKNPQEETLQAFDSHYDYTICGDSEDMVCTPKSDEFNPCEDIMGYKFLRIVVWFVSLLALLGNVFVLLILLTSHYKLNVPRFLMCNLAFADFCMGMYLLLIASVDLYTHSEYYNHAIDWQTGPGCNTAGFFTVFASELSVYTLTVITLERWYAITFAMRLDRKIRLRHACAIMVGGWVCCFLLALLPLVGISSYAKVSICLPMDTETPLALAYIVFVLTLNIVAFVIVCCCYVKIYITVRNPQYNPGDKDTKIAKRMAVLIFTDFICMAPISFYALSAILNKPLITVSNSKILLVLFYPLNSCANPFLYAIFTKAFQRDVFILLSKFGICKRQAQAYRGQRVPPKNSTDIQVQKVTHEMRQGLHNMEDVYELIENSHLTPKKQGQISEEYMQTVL
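HEK 293 cells stably expressing TSHR and a cAMP-gated CNG channel; parental CNG-only cells as counterscreen. Cells preloaded 60 min with membrane potential dye plus 100 uM RO 20-1724, then compound 30 min; fluorescence read at 590 nm.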
* marks the source's active call; other numbers are inactive results; i = inactive; ? = inconclusive; . = not tested or not shown; [ ] = dose if it differs, or a comment.

molecule	AID923	A647 fluor	Resorufin autofl	A488 fluor	TSHR agonist
O=C(CN1CCOCC1)n1c2ccccc2c2ccccc21	-0.2%	1.7e-09	i	i	6.9%
COc1ccc(-c2cn3c4c(sc3n2)CCCC4)cc1	1.2%	1e-09	i	i	16.1%
CO[C@@H]1COC(=O)CC=C[C@@H](C)[C@@H]2C=C[C@H](O)[C@@H](COC(=O)C/C=C\[C@H]1C)O2	0.7%[11.5 µM]	.	.	.	-0.7%[11.4 µM]
CC1CCN(Cc2nc3c(c(=O)n(C)c(=O)n3C)n2Cc2cccc3ccccc23)CC1	-1.8%	.	.	.	?
Nn1nnc2ccccc21	-1.3%	1.14e-08	i	i	11.7%
CS(=O)(=O)N(CC(=O)N1CCN(c2cccc(Cl)c2)CC1)C1CCCCC1	0.5%	2.13e-08	i	i	-10.3%
C=CCN1C(=O)C2(/C(=C(\O)c3ccc4c(c3)OCCO4)C(=O)C(=O)N2CCCOC)c2ccccc21 (configuration not stated)	0.5%	2.51e-08	i	i	?
CN(C)c1ccc(CN(C(=O)COc2ccc(F)cc2)C2CCS(=O)(=O)C2)cc1 (configuration not stated)	0.5%	3.3e-09	i	i	4.4%
Cc1ccc(C(=O)N2CCC(C(N)=O)CC2)cc1C	2.2%	1.77e-08	i	i	4.2%
CC(NC(=O)c1ccccc1O)c1ccccc1 (configuration not stated)	0.5%	.	.	.	5.9%[11.4 µM]
COc1ccc(Cl)cc1NC(=O)c1ccco1	-1.4%	3.78e-08	i	i	?
Cc1ccc(C(=O)OCC(=O)Nc2sc3c(c2C#N)CCCCC3)cc1NC(=O)c1ccco1	-0.1%	3.74e-08	i	i	11.8%
CS(=O)(=O)N1CCCC(C(=O)NCc2cccs2)C1 (configuration not stated)	0.0%	2.2e-09	i	i	9.8%
Cn1c(C(=O)N(Cc2ccccc2)Cc2ccccn2)cc2sccc21	-0.9%	1e-08	i	i	?
Cc1cc(NS(=O)(=O)c2ccccc2)n(-c2ccccc2)n1	-0.4%	3.03e-08	i	i	2.9%
COc1ccccc1-n1cnc2cc(C(=O)NCc3ccco3)ccc21	0.1%	2.26e-08	i	i	5.4%[11.4 µM]
O=C(NC1CCCCNC1=O)c1ccc(Cl)cc1 (configuration not stated)	-0.6%	1e-09	i	i	-2.1%
COC(=O)[C@@H]1CC[C@H](C)[C@@H](c2ccc(C)cc2)N1C(=O)c1ccc(/C=N\O[C@@H]2O[C@H](COC(C)=O)[C@H](OC(C)=O)[C@H](OC(C)=O)[C@H]2OC(C)=O)cc1	-4.2%[11.5 µM]	.	.	.	2.4%[11.4 µM]
COc1ccc(C(=O)N2CCCC(c3nc(-c4cccs4)no3)C2)cc1OC (configuration not stated)	0.5%	3.46e-08	i	i	?
O=C(c1cnccn1)N1CCC[C@@]2(CCN(C(c3ccccc3)c3ccccc3)C2)C1	0.0%	1e-09	i	i	?
O=C1c2ccccc2C(Nc2ccc3c(c2)OCCO3)N1c1ccc(Cl)cn1 (configuration not stated)	-0.6%	.	.	.	?
CCOC(=O)OCC1OC(c2cc(C)cc(C)c2)C=CC1OC(=O)OCC (configuration not stated)	-1.5%[11.5 µM]	.	.	.	0.3%[11.4 µM]
Cc1ccc(-c2cc(=O)[nH][nH]2)c(C)c1	-1.6%	1.44e-08	i	i	3.3%[11.4 µM]
Cc1csc(C(C#N)C(=O)c2ccc(S(=O)(=O)N3CCCC3)cc2)n1 (configuration not stated)	1.8%	1e-09	i	i	?
CN1CCN(Cc2cc(=O)oc3cc4c(cc23)CCC4)CC1	-0.6%	1.8e-09	i	i	?
O=C(CC1CCCCC1)c1c(O)c2ccccc2oc1=O	0.9%	6.7e-09	i	i	5.3%
CCOc1ccc(-c2nc(S(=O)(=O)c3ccccc3)c(NCc3cccnc3)o2)cc1	2.6%	2.8e-09	i	i	24.3%
CCOC(=O)C1=C(C)Nc2nc(SCC(=O)OC)nn2C1c1cc(F)cc(F)c1 (configuration not stated)	-1.6%	2.96e-08	i	i	-1.9%
Cn1ccnc1C(O)(c1nnc(-c2ccccc2)o1)C(F)(F)F (configuration not stated)	0.7%	2.2e-09	i	i	2.4%
O=C(CN1C(=O)C2CC=CCC2C1=O)OCCN1C(=O)c2ccccc2C1=O (configuration not stated)	-1.4%	4.75e-08	i	i	-0.1%
COc1cc(CO)cc(-c2cc(CO)cc(OC)c2OC)c1OC	-0.5%	1.73e-08	i	i	1.3%
Cc1ccc(S(=O)(=O)Oc2ccc(N=Nc3ccc(-c4ccc(N=Nc5c(O)ccc6cc(S(=O)(=O)O)cc(S(=O)(=O)O)c56)c(C)c4)cc3C)cc2)cc1	-4.0%	.	.	.	4.0%
COc1ccc(Nc2nnc(Cc3ccccc3)c(=O)[nH]2)c(OC)c1	-0.8%	1.21e-08	i	i	1.4%
c1nc(N2CCC3(CC2)OCCO3)c2[nH]cnc2n1	-1.2%	4e-09	i	i	0.6%
COC(=O)[C@@]1(Cc2ccccc2)[C@H]2c3cc(C(=O)N4CCCC4)n(C)c3C[C@H]2CN1C(=O)c1ccccc1	-0.3%	.	.	.	?
Cc1noc(C)c1COc1cccc(C(=O)Oc2ccc3c(c2)OCO3)c1	1.2%	1.29e-08	i	i	?
CC(C)NC(=O)N1CCC2(CC1)CCN(C(=O)c1cccn1C)CC2	1.3%	1e-09	i	i	-1.3%
Cc1nc(-c2ccc3c(c2)OCO3)cs1	-1.5%	.	.	.	4.5%
CCCc1ccc(OCC(=O)O)cc1	0.0%	.	.	.	9.1%
N#Cc1c2n(c3c(=O)n(Cc4ccccc4)cnc13)CCCC2	-1.3%	3.8e-08	i	i	0.5%
Cc1cc(C)n(-c2nc3ccccc3nc2N2CCN(C(=O)c3ccc(F)cc3)CC2)n1	6.9%	8.9e-09	i	i	18.9%
O=C(NCc1ccco1)c1nn(-c2ccccc2)c(=O)c2ccccc12	-0.5%	4.17e-08	i	i	?
COc1ccc(S(=O)(=O)N(CCCN2CCCC2=O)Cc2cc3cc(C)c(C)cc3[nH]c2=O)cc1	0.1%	1.1e-09	i	i	3.9%
O=C(CSc1nc2c(c(C(F)(F)F)n1)CCc1ccccc1-2)NCc1ccco1	0.8%	1e-08	i	i	?
Cc1nc(-c2ccc(S(=O)(=O)N3CCCCCC3)cc2)cs1	0.1%	.	.	.	?
O=C(CSc1nnnn1-c1cccnc1)NCc1cccs1	1.2%	7.3e-09	i	i	-4.0%[11.4 µM]
Cc1csc(NC(=O)c2nc3nc(C)cc(C)n3n2)n1	-1.0%	2.54e-08	i	i	-7.5%
O=C(Nc1ccc(-c2nc3ccccc3[nH]2)cc1)c1ccco1	3.6%	4.2e-09	i	i	0.3%
CCOc1ccc2ccccc2c1/C=N/n1cncn1	-0.1%	3.43e-08	i	i	22.7%
CC12CCC(C(=O)NCC3CCCO3)(OC1=O)C2(C)C (configuration not stated)	-0.4%	5.33e-08	i	i	?

An excerpt from above with just TSHR agonist, AID923 and A488 fluor.
mol | TSHR agonist | AID923 | A488 fluor
Cn1ccnc1C(O)(c1nnc(-c2ccccc2)o1)C(F)(F)F (configuration not stated) | 2.4% | 0.7% | i
Cc1cc(C)n(-c2nc3ccccc3nc2N2CCN(C(=O)c3ccc(F)cc3)CC2)n1 | 18.9% | 6.9% | i
O=C(CSc1nnnn1-c1cccnc1)NCc1cccs1 | -4.0%[11.4 µM] | 1.2% | i
Cc1ccc(S(=O)(=O)Oc2ccc(N=Nc3ccc(-c4ccc(N=Nc5c(O)ccc6cc(S(=O)(=O)O)cc(S(=O)(=O)O)c56)c(C)c4)cc3C)cc2)cc1 | 4.0% | -4.0% | .

The list goes on:
Second line of a record: AID923	A647 fluor	Resorufin autofl	A488 fluor	TSHR agonist
O=C(O)CSC1c2ccccc2C(=O)N1Cc1ccccc1 (configuration not stated)
  -0.6%	1.3e-08	i	i	4.2%
CC(C)Oc1ccc(CNC2CCOC(C)(C)C2)cc1 (configuration not stated)
  1.1%	1e-09	i	i	5.8%
Cc1cc(C)nc(SCc2nnc(SCC(=O)Nc3ccc(C)c(C)c3)n2Cc2ccco2)n1
  -0.3%	4.56e-08	i	i	18.5%
CSc1nc2cc(S(=O)(=O)N3CCOCC3)ccc2s1
  1.3%	1.75e-08	i	i	-1.4%
N#Cc1ccc(CN2CCCC3(CCN(C(=O)c4cccc(F)c4)CC3)C2)cc1
  4.5%	1e-09	i	i	?
NC(=O)c1c(N)sc(=S)n1CC1CCCO1 (configuration not stated)
  0.8%	1.9e-09	i	i	-1.2%
CC(C)OC(=O)CSc1nnc(-c2ccncc2)n1N
  -0.3%	3.8e-09	i	i	0.4%[11.4 µM]
COc1ccc2[nH]c3c(N4CCN(Cc5ccc6c(c5)OCO6)CC4)ncnc3c2c1
  .	4.67e-08	i	i	.
CCN(c1ccccc1)c1cc(NC)[n+](C)c(C)n1
  -2.0%	.	.	.	?
CCN(CC)CCn1c(-c2ccccc2)nc2c(NCCOC)nc(C)nc21
  -1.9%	.	.	.	3.8%
COC(=O)c1ccc(C(NC(=O)OCc2ccccc2)/C(F)=C/[C@@H](C)C(=O)NCc2ccc(OC)c(OC)c2)cc1 (some centres not stated)
  -0.2%	.	.	.	21.2%
CCOC(=O)C1=C(C)NC(C)=C(C(=O)OCC)C1
  -1.2%	8.6e-09	i	i	12.3%
CC1(C)Cc2c(C#N)c(SCc3nc4ccccc4[nH]3)nc(N3CCOCC3)c2CO1
  .	1.7e-09	i	i	.
Cc1nnc2n(Cc3ccccc3)c(=O)c3c4c(sc3n12)COC(C(C)C)C4 (configuration not stated)
  .	2.01e-08	i	i	.
COc1cccc(N2C(=O)CC(N3CCC(C(N)=O)(N4CCCCC4)CC3)C2=O)c1 (configuration not stated)
  -1.9%	1.5e-09	i	i	.
COC(=O)[C@@]1(Cc2ccc(F)cc2)[C@H]2c3cc(C(=O)N4CCCC4)n(CCSCCO)c3C[C@H]2CN1C(=O)c1ccccc1
  1.2%	.	.	.	11.1%
O=c1[nH]c(CN2CCC(c3nc4ccccc4s3)CC2)nc2sc3c(c12)CCC3
  -0.6%	4.07e-08	i	i	1.8%
CC(=O)CCc1ccccc1
  5.5%	.	.	.	1.5%
COC(=O)[C@@H]1C[C@@]1(C)[C@@H](NC(=O)OCc1ccccc1)c1ccccc1
  19.8%	.	.	.	?
CCC[C@H]1C[C@H](C(=O)N[C@H]([C@@H]2O[C@H](SC)[C@@H](O)[C@H](O)[C@@H]2O)[C@H](C)O)N(C)C1
  -0.6%[25.7 µM]	1e-09	i	i	18.7%[25.6 µM]

Record cards (already shown). Order of values: AID923, A647 fluor, Resorufin autofl, A488 fluor, TSHR agonist
CC(=O)CCc1ccccc1 as listed: 5.5%, ., ., ., 1.5%
COC(=O)[C@@H]1C[C@@]1(C)[C@@H](NC(=O)OCc1ccccc1)c1ccccc1 as listed: 19.8%, ., ., ., ?

Later entries.
Second line of a record: AID923	A647 fluor	Resorufin autofl	A488 fluor	TSHR agonist
O=C(OCC(=O)c1c[nH]c2ccccc12)c1ccco1
  -0.4%	1e-09	i	i	-2.1%[11.4 µM]
Cc1cccc(-c2c3c(=O)n(C)c(=O)n(C)c3cn2-c2ccc(O)cc2)c1
  -0.1%	3.8e-09	i	i	8.6%[11.4 µM]
Cc1ccc(C)c(-n2c(CNC(=O)c3ccco3)nnc2SCC(=O)Nc2nnc(C)s2)c1
  -0.4%	.	.	.	-4.5%
Cc1ccc(NC(=O)C2CCCN(S(=O)(=O)c3cnc[nH]3)C2)c(Br)c1 (configuration not stated)
  2.8%	.	.	.	-4.7%
CCN(CC)C(=O)C1=C(C)Nc2nnnn2C1c1cccnc1 (configuration not stated)
  1.0%	1e-09	i	i	-2.1%

A portion of the library; the hit share may differ from the screen's.
